# Arbovirus anti = antivirals against arbovirus infection, primary screen, cell-based, full library, 10K replicate subset | arbovirus infection cell-based antiviral screen | inhibition, % at 10 µM | hit rate 0.37% among 200,000;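 active = inhibition from about 30%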;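 also: bluetongue infection of BSR cells; cell survival read as ATP light after 72 h; 0% = infected wells without compound and 100% = uninfected wells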
# YopH inh = YopH tyrosine phosphatase inhibitors, primary screen, biochemical, fluorescence Ex485/Em525; YopH tyrosine phosphatase [Yersinia enterocolitica]; hit rate 0.16% among 140,000; inhibition, %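 (about 10 µM by stock and volumes)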; AID 898, 2007;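 active = inhibition of 50% or more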;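 also: controls were vehicle for no effect and minimum signal wells for full effect; inactives centre near -20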
# Mtb betalactam = beta-lactam sensitization of Mtb H37Rv, H37Rv. M. tuberculosis H37Rv growth with meropenem, percent inhibition; hits of this screen are not shown here. inhibition, % at 25 µM. AID 434955, 2010. hit rate 0.27% among 330,000;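 active = about 74% or more and at least 40 points above the plate without the antibiotic, then above 30% in a dose series; inconclusive = first-round hits that could not be retested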;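 also: growth measured after seven days incubation then overnight dye step; 0% = bacteria only wells and 100% = bacteria with antibiotic; twin plates without the antibiotic show which effects depend on it; some results filed as inactive read as strong as hits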
# RecA splice inh = Mtb RecA intein splicing inhibitors, primary screen, biochemical, fluorescence, HTS. Protein RecA (Mycobacterium tuberculosis (strain ATCC 25618 / H37Rv)), P9WHJ3. cell-free RecA intein splicing. inhibition, %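 (about 9 µM by stock and volumes)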. hit rate 0.75% among 290,000. AID 2221, 2009; in the data active = inhibition above about 30%; inconclusive = no clear call, values can overlap the other calls;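 also: 0% = vehicle wells and 100% = reference inhibitor control wells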
# Target sequence (P9WHJ3 whole entry, looked up, canonical isoform): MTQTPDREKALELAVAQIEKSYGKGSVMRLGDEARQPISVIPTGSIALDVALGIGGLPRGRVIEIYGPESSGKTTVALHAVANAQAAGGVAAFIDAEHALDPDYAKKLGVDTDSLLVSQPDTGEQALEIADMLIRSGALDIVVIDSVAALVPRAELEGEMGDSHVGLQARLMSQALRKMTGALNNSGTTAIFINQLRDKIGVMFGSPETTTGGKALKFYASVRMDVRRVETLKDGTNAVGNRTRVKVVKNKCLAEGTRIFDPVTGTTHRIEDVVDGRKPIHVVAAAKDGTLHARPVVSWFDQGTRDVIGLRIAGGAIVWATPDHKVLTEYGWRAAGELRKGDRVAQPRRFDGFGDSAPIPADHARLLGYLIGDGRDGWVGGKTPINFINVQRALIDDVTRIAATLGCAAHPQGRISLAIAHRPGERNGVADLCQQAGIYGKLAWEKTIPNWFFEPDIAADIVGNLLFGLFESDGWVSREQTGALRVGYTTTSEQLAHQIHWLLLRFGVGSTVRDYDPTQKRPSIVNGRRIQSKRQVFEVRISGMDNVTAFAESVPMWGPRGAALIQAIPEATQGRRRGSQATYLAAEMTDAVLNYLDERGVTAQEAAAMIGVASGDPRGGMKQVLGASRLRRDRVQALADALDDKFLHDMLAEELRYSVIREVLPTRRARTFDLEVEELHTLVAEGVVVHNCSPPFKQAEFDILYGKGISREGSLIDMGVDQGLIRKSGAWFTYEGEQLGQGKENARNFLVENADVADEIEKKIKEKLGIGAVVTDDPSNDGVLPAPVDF
# Mtb H37Rv = M. tuberculosis H37Rv growth inhibitors, H37Rv strain (AID 1626); M. tuberculosis H37Rv growth inhibition; higher % means a stronger effect; inhibition, % at 10 µM, or IC50 in µM where a hit was titrated; hit rate 0.95% among 220,000;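 active = confirmed in a dose series; inconclusive = inhibition above 80% but not taken into the dose series; inactive = below 80% or under 30% at every dose of the series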;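 also: bacteria incubated seven days before Alamar blue readout; 0% = bacteria only wells and 100% = bacteria with antibiotic wells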
# Arbovirus anti repeat = further read-out of Arbovirus anti, marked with its call; inhibition, %; measured here: 10K subset replicate screen; many hits read low in the repeat;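 first of two repeat runs on a subset; 0% = infected and 100% = uninfected wells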
# Active calls of the source: *; ? = inconclusive; / = no result given.
SMILES,Arbovirus anti,YopH inh,Mtb betalactam,RecA splice inh,Mtb H37Rv,others
COc1ccccc1NC(=S)NNC(=O)c1cc(C)n(C)n1,-1,8,-7,-0.4,-3%,
CC[C@H](C)[C@H](NC(N)=O)C(=O)NCCc1ccc(OC)cc1,/,/,-3,0.6,-3%,
O=C(c1cc2ccccc2oc1=O)N(Cc1cccs1)Cc1ccccc1Cl,2,10,-4,-0.1,-8%,
NS(=O)(=O)c1ccc(NC(=S)NC2CCCCC2)cc1,2,/,5,-0.5,2%,
C=CCOc1ccc(CNn2nnnc2N)cc1,4,-21,-3,-0.3,/,
O=C(CSc1nnc(CNC(=O)c2c(F)cccc2Cl)o1)NC1CCCCC1,/,/,-4,-3.3,/,
Cc1ccc(CNC(=O)c2nnn(-c3cccc(C)c3)c2N)cc1,5,-35,5,-2.9,2%,
Cn1ccnc1Sc1ccc(C=O)cc1[N+](=O)[O-],6,/,-1,-3.0,0%,
COC(=O)NNC(=O)COc1ccc(Br)c(C)c1,-3,-20,1,2.5,-7%,
CN(C(=O)c1cc2c(=O)n3ccccc3nc2n1C)C1CCCCC1,/,/,-2,-349,/,
CCOc1ccccc1OCC(=O)Nc1cc(S(=O)(=O)N2CCCCC2)ccc1OC,/,/,0,2.2,/,
O=C(CCNC(=O)c1ccc([N+](=O)[O-])cc1)Nc1ccc(N2CCOCC2)cc1N1CCOCC1,3,/,-6,-2.6,-9%,
COc1ccc(C(CCNC(C)c2ccccc2)C(C)C)cc1 (configuration not stated),/,/,8,4.6,5%,
COc1ccc(CNC(=O)C2CCN(S(C)(=O)=O)CC2)cc1,3,/,2,-0.1,/,
Cc1csc(SCC(=O)NCCc2ccc(Cl)cc2Cl)n1,-21,-9,-3,2.7,3%,
CCc1c(O)nc(SCC(=O)Nc2ccc(Br)cc2)n(-c2ccc(C)cc2)c1=O,/,/,7,2.5,/,
CN(C)S(=O)(=O)c1ccc(C(=O)OCC(=O)NC(=O)NCc2ccccc2)cc1,4,-45,-1,-0.9,3%,
O=C(Nc1cccc(OC(=O)N2CCOCC2)c1)N1CCOCC1,0,-28,7,1.6,-2%,
O=[N+]([O-])c1ccc(S(=O)(=O)NCC2COc3ccccc3O2)cc1 (configuration not stated),/,/,8,1.0,/,
O=C(CSc1c(Cl)cccc1Cl)N1CCC(c2nc3ccccc3s2)CC1,-1,-29,-1,14,6%,
N#Cc1ccc(Cl)cc1NC(=O)COC(=O)c1ccc(S(=O)(=O)N2CCCC2)cc1,9,-9,-4,-1.8,/,
O=C(Nc1ccccn1)NC1CCS(=O)(=O)C1 (configuration not stated),-7,-7,3,-1.3,0%,
CC(=O)NCCC(=O)Nc1ccc(F)cc1C,-1,-1,-6,0.0,-1%,
O=C(Nc1c2c(nn1-c1ccc(Cl)cc1)CS(=O)(=O)C2)c1ccc2c(c1)OCO2,7,-34,/,-1.0,1%,
CCc1ccccc1NC(=O)Cc1cn(C)c2ccccc12,0,/,-8,0.3,7%,
CN(c1ccccc1C(=O)Nc1ccc2c(c1)n(C)c(=O)n2C)S(C)(=O)=O,/,/,0,-0.4,/,
CCOc1ncccc1C(=O)N1CCCSC1=Nc1ccc(C(C)=O)cc1,7,/,7,3.3,8%,
Cc1ccc(C(=O)CNc2ccc(C)cc2C)cc1,/,/,0,-1.0,/,
S=c1[nH]nc(-c2ccc(Br)cc2)n1Cc1ccco1,5,-43,-1,6.3,10%,
COc1ccc(CNC(=O)c2cc(=O)c3ccc(C)c(C)c3o2)cc1,/,/,8,-3.1,/,
CCN(c1ccc(NS(=O)(=O)c2cc(Cl)ccc2Cl)cc1)C(C)C,13,-19,1,-0.1,4%,
O=C(CSc1nnnn1-c1ccc(F)cc1)NNC(=O)c1ccco1,/,/,-1,-1.1,/,
COc1cccc(CNC(=O)CC(NC(C)=O)c2ccccc2)c1 (configuration not stated),8,/,-2,-1.8,-8%,
COc1ccc(OC)c(NC(=O)c2cc(S(=O)(=O)NCc3ccco3)ccc2F)c1,5,-18,/,1.7,-5%,
COCCNC(=O)CN(c1ccc(OC)c(OC)c1)S(=O)(=O)c1ccc(C)cc1,2,-35,-1,1.2,-6%,
CCOc1ccccc1Oc1ccc(C(F)(F)F)cn1,11,-28,8,1.2,-6%,
O=C(Nn1cnc2ccccc2c1=O)c1ccc(Br)cc1,/,/,-3,0.0,/,
CN1CC(c2ccc(Cl)c(Cl)c2)[C@@]2(COc3ccccc3C2=O)[C@@]12C(=O)Nc1ccccc12 (some centres not stated),-31,-2,8,2.6,-4%,
NC(=NC(=O)c1ccc(Cl)cc1)N1N=CCC1c1ccccc1 (configuration not stated),6,/,7,7.4,12%,
O=C(CN1CCN(Cc2ccccc2)CC1)N/N=C/c1cccnc1,/,/,-1,-0.3,-10%,
CC1CCCC(C)N1/N=C/c1ccc(Cl)cc1 (configuration not stated),1,-13,-2,0.6,0%,
Brc1ccc(Nc2ncnc3[nH]ncc23)cc1,/,/,1,1.6,4%,
O=C(O)CCc1n[nH]c(=S)[nH]c1=O,2,-23,-1,-0.1,4%,Arbovirus anti repeat=4
O=C(O)c1cccc2c1C(=O)c1ccccc1C2=O,10,/,3,-3.2,-1%,
O=S(=O)(NC1CCCC1)c1ccc(-n2cnnn2)cc1,/,/,-9,1.3,/,
COc1ccc2c(=O)c(-c3ccc(OC)c(OC)c3)coc2c1,3,/,-1,-1.2,-9%,
CC(C)c1ccc(NC(=O)C2CC(=O)Nc3nc4ccccc4n32)cc1 (configuration not stated),/,/,1,-0.7,-4%,
CCOC(=O)c1c(N)nn(C(=O)C(C)(C)C)c1-c1ccccc1,-3,-18,9,0.0,1%,
Cc1c(C(=O)N/N=C/c2ccc(O)cc2)sc(=S)n1C,-8,-22,3,-1.0,0%,
O=C(CSCc1ccccc1Cl)NN1C(=O)c2ccccc2C1=O,2,-27,0,-1.8,-2%,
# Other records follow.
SMILES,Arbovirus anti,YopH inh,Mtb betalactam,RecA splice inh,Mtb H37Rv,others
CCOc1ccc(NC(=O)CSc2nnc(-c3ccoc3C)n2CC2CCCO2)cc1 (configuration not stated),2,10,-19,-2.7,-8%,
O=C(Nc1nnc(SCc2ccccc2Cl)s1)c1cccc([N+](=O)[O-])c1,3,-20,-4,-1.4,6%,
COc1ccc([N+](=O)[O-])cc1NS(=O)(=O)c1ccc(C)cc1,/,/,-3,0.1,/,
Fc1ccc(-c2n[nH]c(=S)n2/N=C/c2c[nH]c3ccccc23)cc1,-10,0,4,-0.8,3%,
COc1ccc(/C=N/Nc2cc(C)nc(-n3nc(C)cc3C)n2)c(OC)c1,-40,-7,98,0.5,?,
CCN(CC)CCC(=O)N1c2ccccc2Sc2ccc(Cl)cc21,/,/,3,4.5,/,
Cc1cc(C)nc(N2CCCC(C(=O)NCC(c3ccccc3)c3ccccc3)C2)n1 (configuration not stated),-11,-25,-5,1.3,-3%,
Cc1cc(Br)c(NC(=O)Cn2c([N+](=O)[O-])cnc2C)cc1C,/,/,1,1.1,/,
C=CCn1c(C)c(C(C)=O)c(N2CCOCC2)nc1=S,-4,-38,-3,-1.7,3%,
Cc1nc(N2CCCCC2)c2ccsc2n1,8,-16,68,-2.0,12%,

# Overlap with the part before: two compounds; new compounds follow.
SMILES,Arbovirus anti,YopH inh,Mtb betalactam,RecA splice inh,Mtb H37Rv,others
C=CCn1c(C)c(C(C)=O)c(N2CCOCC2)nc1=S,-4,-38,-3,-1.7,3%,
Cc1nc(N2CCCCC2)c2ccsc2n1,8,-16,68,-2.0,12%,
O=C(CSc1nnc(SCC(=O)NCc2ccc3c(c2)OCO3)s1)NCc1ccc2c(c1)OCO2,-4,-12,/,/,-4%,
O=C(COC(=O)CSc1ccc([N+](=O)[O-])cc1)NCCCc1ccccc1,/,/,-2,5.9,/,
CCOC(=O)c1ccc(N=C2SC(C(=O)Nc3ccc(C(=O)O)cc3)CC(=O)N2Cc2cccs2)cc1 (configuration not stated),-1,/,-4,-1.6,6%,
Cc1nc2ccccc2nc1CN1CCN(Cc2ccc(F)c(F)c2)C(CCO)C1 (configuration not stated),5,/,0,1.3,6%,
CCC1(C)Cc2ccccc2-c2nc(SCC(N)=O)[nH]c(=O)c21 (configuration not stated),/,/,3,0.8,/,
CCCC(=O)Nc1cc2c(cc1C(C)=O)OCCO2,0,/,-4,-2.8,0%,
COCCCNC(=O)Cn1nnc(-c2ccc(NC(=O)c3ccccc3F)cc2)n1,-5,-16,1,-0.6,6%,
COc1ccc(C2C(C(=O)c3ccccc3)N3c4ccccc4C=CC3C2[N+](=O)[O-])cc1 (configuration not stated),-5,/,/,/,-4%,
Cc1cccc(CS(=O)(=O)c2cn(CC(=O)N3CCOCC3)c3ccccc23)c1,/,/,-6,1.4,/,
CC(C)CCNC(=O)CCCOc1ccccc1,4,-11,13,1.4,-2%,
Cc1ccc2nc(SCC(=O)NCc3ccc(S(N)(=O)=O)cc3)[nH]c2c1,/,/,6,-3.5,/,
Cc1ccsc1C(=O)C1CCCN(Cc2ccccc2O)C1 (configuration not stated),5,/,0,-0.2,-6%,
COc1ccc(C)cc1NC(=O)c1ccc(OC(F)F)cc1,9,-25,68,0.8,12%,
COc1cc(C)nc(NCc2ccccc2)n1,-12,0,2,-3.4,-4%,
CN(C)CCN1C(=O)C2C(C(=O)Nc3cc(Cl)cc(Cl)c3)C3C=CC2(O3)C1C(=O)NC1CCCCC1 (configuration not stated),/,/,3,-0.8,/,
Cc1nc2nc(C)n(-c3ccccc3)c2s1,-5,-42,-8,/,-1%,
Cc1ccc(/C=N\NC(=O)Cc2cccn2C)o1,0,/,-6,-1.2,-6%,
O=C(O)CN1C(=O)/C(=C\c2cn(CC(=O)N3CCOCC3)c3ccccc23)SC1=S,3,/,-7,-32,-14%,
COc1cccc(OC)c1C(=O)Nc1ccc2c3c(cccc13)CC2,12,-24,99,8.2,42%,
Cc1ccc(-c2nc(C3CCCN(S(=O)(=O)c4ccc(C(C)(C)C)cc4)C3)no2)cc1 (configuration not stated),-6,-27,0,1.2,4%,
C(=N\c1nccs1)/Nc1nccs1,-6,-48,-9,-2.1,-8%,
CCOc1ccc(CCNC(=O)COC(=O)/C=C/c2cccc(OC)c2)cc1OCC,/,/,2,0.0,/,
COc1cc(CN2CCc3ccccc3C2)ccc1O,/,/,-4,-0.4,-11%,
C=C1CCN([C@@H](CC(C)C)C(=O)NCc2ccco2)S(=O)(=O)c2ccccc21,/,/,-1,2.5,-6%,
O=C(NC1CCCCC1)C1c2ccccc2C(=O)N1Cc1ccc2c(c1)OCO2 (configuration not stated),7,/,-8,-0.3,-5%,
Cc1cc(C(=O)N[C@H](c2ccccc2)[C@@]2(C)C[C@@H]2[C@@H](C)C(=O)Nc2ccc3ccccc3c2)no1,-9,-26,8,9.9,7%,
Nc1nc(Nc2ccccc2)nc2ccccc12,-7,-17,11,2.9,2%,

# Among those listed so far, 10 contain two or more sulfur atoms:
SMILES,Arbovirus anti,YopH inh,Mtb betalactam,RecA splice inh,Mtb H37Rv,others
NS(=O)(=O)c1ccc(NC(=S)NC2CCCCC2)cc1,2,/,5,-0.5,2%,
Cc1csc(SCC(=O)NCCc2ccc(Cl)cc2Cl)n1,-21,-9,-3,2.7,3%,
O=C(CSc1c(Cl)cccc1Cl)N1CCC(c2nc3ccccc3s2)CC1,-1,-29,-1,14,6%,
Cc1c(C(=O)N/N=C/c2ccc(O)cc2)sc(=S)n1C,-8,-22,3,-1.0,0%,
O=C(Nc1nnc(SCc2ccccc2Cl)s1)c1cccc([N+](=O)[O-])c1,3,-20,-4,-1.4,6%,
O=C(CSc1nnc(SCC(=O)NCc2ccc3c(c2)OCO3)s1)NCc1ccc2c(c1)OCO2,-4,-12,/,/,-4%,
CCOC(=O)c1ccc(N=C2SC(C(=O)Nc3ccc(C(=O)O)cc3)CC(=O)N2Cc2cccs2)cc1 (configuration not stated),-1,/,-4,-1.6,6%,
Cc1ccc2nc(SCC(=O)NCc3ccc(S(N)(=O)=O)cc3)[nH]c2c1,/,/,6,-3.5,/,
O=C(O)CN1C(=O)/C(=C\c2cn(CC(=O)N3CCOCC3)c3ccccc23)SC1=S,3,/,-7,-32,-14%,
C(=N\c1nccs1)/Nc1nccs1,-6,-48,-9,-2.1,-8%,

# Compound activity: PubChem, several laboratories

# The list is partial, so the mix of outcomes need not match the whole.
